# GIV-Gai inh = GIV-Galpha-i interaction inhibition; Galpha-i3/FITC-GIV peptide fluorescence polarization, 90 min; stronger effect = lower value; scaled: aluminum fluoride 0%, vehicle 100%; actives 0.42% (n = 210,000); AID 1224905; P08753; percent of control (FP), % (no concentration beside the values);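 active = replicate mean at 85% of control or lower, very high polarization wells dropped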;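 also: wells of about 15 µL received 100 nL stock; the first replicate is given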
# Target sequence (P08753 whole entry, looked up): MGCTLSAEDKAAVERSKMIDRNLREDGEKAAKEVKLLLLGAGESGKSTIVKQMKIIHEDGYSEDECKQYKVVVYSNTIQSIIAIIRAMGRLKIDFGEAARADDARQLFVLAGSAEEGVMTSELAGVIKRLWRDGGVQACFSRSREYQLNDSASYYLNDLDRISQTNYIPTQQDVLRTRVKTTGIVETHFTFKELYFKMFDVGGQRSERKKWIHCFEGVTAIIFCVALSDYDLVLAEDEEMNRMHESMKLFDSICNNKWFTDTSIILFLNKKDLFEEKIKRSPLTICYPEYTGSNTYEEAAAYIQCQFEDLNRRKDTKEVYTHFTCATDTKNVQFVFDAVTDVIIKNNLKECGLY
# Sa growth 42C = S. aureus growth inhibition. S. aureus RN4220 growth, OD600, 20 h, 42 °C; stronger effect = lower value. actives 0.53% (n = 170,000). relative growth, % (concentration not given with the values). AID 720641;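 active = growth at 42 °C up to 50% and 20 or more points under that at 30 °C, or under 10% at both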;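 also: 300 nL library stock went into each well; scaled to the means of positive and negative controls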
# HCMV UL50-53 inh = cytomegalovirus nuclear egress complex inhibition. HTRF UL50-UL53 interaction, normalized percent inhibition. AID 1918969. actives 0.15% (n = 190,000). inhibition, % (concentration not given with the values);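 active = both replicates at 50% or more, plus weaker picks with an unusually low signal ratio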;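 also: stock transfer was 100 nL into about 20 µL; 0% = negative control wells and 100% = wells with untagged competitor protein; inactives centre near -12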
# Sa growth 42C second temp = second read-out of Sa growth 42C, no call of its own (marks repeat the call); relative growth, %; measured here: growth at 30 °C;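 optical density after 20 h as mean of two plates; 100% = untreated growth and lower means inhibition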
# An asterisk follows results filed as active; . = not tested or not shown; & = joins results of further samples.
compound,GIV-Gai inh,Sa growth 42C,Sa growth 42C second temp,HCMV UL50-53 inh
Cc1ccc(-n2c(=O)c3c(c4cc(C)ccc4n3C)n(CC(=O)Nc3cc(C)cc(C)c3)c2=O)cc1,104.5,100.0,104.3,.
COc1ccc(OC)c(NC(=O)c2cc(C3CC3)nc3c2c(C)nn3-c2ccc(C)cc2)c1,103.0,85.6,88.2,.
O=C(CCOc1ccccc1)NCc1ccco1,95.7,106.4,91.8,.
CCOC(=O)CC1=CC(SCc2cccc(C)c2)=Nc2ccccc2N1,112.2,.,.,-8.5
CC(=O)Nc1c2n(c3ccc(F)cc13)CC(C)(C(=O)NC1CCCC1)N(CCC1=CCCCC1)C2=O (stereo not given),98.5,.,.,-3.0
CCOC(=O)c1c(-c2ccc(C)cc2)csc1NC(=O)c1cc(-c2ccc(OC)cc2)on1,97.1,101.0,93.4,-13.4
Cc1ccc(C(=O)[C@@H]2[C@@H](C(C)(C)C)C(C#N)(C#N)[C@@]3(C)C=Cc4ccccc4N23)cc1,.,115.0,94.1,-71.6
COc1ccc(C2OC(COc3ccc4c(C)cc(=O)oc4c3)=NN2C(C)=O)cc1 (stereo not given),101.1,111.0,91.6,-19.9
CC(c1ccccc1)n1c(SCC(=O)c2ccc(F)cc2)n[nH]c1=O (stereo not given),92.8,97.6,84.1,-17.1
O=C(/C=C/c1ccccc1)Nc1cc(-c2nc3ccccc3o2)ccc1Cl,101.8,83.6,79.6,-22.7
Cc1cc(C)cc(Nc2cc(C(=O)O)nc3ccc(C)cc23)c1,106.1,.,.,-61.1
Cc1ccc(S(=O)(=O)N(C)CCO)cc1-c1nnc2c3ccccc3c(C)nn12,103.7,95.0,86.6,-22.7

# The list goes on:
compound,GIV-Gai inh,Sa growth 42C,Sa growth 42C second temp,HCMV UL50-53 inh
O=C(/C=C/c1ccc(F)cc1)N(CCO)c1nc2ccccc2[nH]1,.,99.7,77.0,-22.2
COc1ccc(C(=O)N2CC(C)N(C(=O)c3ccc(OC)c(OC)c3)CC2C)cc1OC (stereo not given),102.1,91.6,104.5,.
CCCn1c2ccccc2n2c(C(=O)c3cccs3)c(C)nc12,.,108.4,70.7,-12.7
CC(=O)Nc1ccc(NC(=O)CSc2cccc[n+]2[O-])cc1,.,92.3,92.5,10.7
Cc1ccc(NC(=O)[C@@H](c2ccccc2)N2Cc3ccccc3C2=O)cc1F,102.6,103.5,91.9,-25.0
COc1cccc(NC(=O)C2CCCN(S(=O)(=O)c3cc4c(cc3C)NC(=O)CO4)C2)c1 (stereo not given),99.9,.,.,-15.5
Cc1nc2ncnn2c(Sc2ccccc2NC(=O)Cc2ccc(Cl)cc2)c1C,98.2,.,.,-26.3
Cc1ccc(Cl)cc1NC(=O)c1ccc2snnc2c1,102.7,102.6,81.2,-21.6
CC1=C(C(=O)OCc2ccc(C)cc2)C(c2cccc(Oc3ccccc3)c2)NC(=O)N1 (stereo not given),111.2,.,.,-6.3
CN(C)CCNc1ncnc2c1c(-c1ccccc1)cn2-c1ccccc1,107.0,.,.,-22.5
CCN(CC)CCCNC(=O)Cn1nc(N2CCN(c3ccccc3OC)CC2)ccc1=O,105.1&106.0,95.2,96.4,-33.8
Cc1noc(C)c1S(=O)(=O)N1CCCC1c1cccs1 (stereo not given),103.7,.,.,-31.5

# (continued)
compound,GIV-Gai inh,Sa growth 42C,Sa growth 42C second temp,HCMV UL50-53 inh
Cc1ccc(C)n1-c1nnc(N2CCCC(C(=O)O)C2)s1 (stereo not given),86.7,83.7,92.9,.
O=C(CCNS(=O)(=O)c1cccs1)NC1CCCc2ccccc21 (stereo not given),.,96.5,92.9,-3.9
COc1ccc(CNC(=O)Cc2c(C)c3c(cc(C)c4c(C)c(C)oc43)oc2=O)cc1OC,101.5,114.7,87.6,-22.3
COc1ccc(Cc2nnc(SCc3cccc(C(=O)O)c3)o2)cc1OC,104.3,77.9,87.6,.
CC(C)c1ccc(NC(=O)N2CCN(c3ccc(Cl)c(Cl)c3)CC2)cc1,109.0,113.9,93.8,15.0
CCOc1ccc(CNC(=O)c2sc3nc(C)cc(C)c3c2-n2cccc2)cc1,90.7,98.0,90.3,0.3
COc1ccc(Cc2nnc(SCC(N)=O)o2)cc1,96.5,75.8,92.1,-29.7
Cc1ccc2c(c1)CCCN2C(=S)Nc1cccc(C(F)(F)F)c1,105.4,97.9,86.8,-15.7
O=C(CN1N=C(c2ccccc2)c2cc(Cl)ccc2S1(=O)=O)NCc1ccc(F)cc1,108.9,.,.,4.1
CCc1ccc(OCC(=O)Nc2sc3c(c2C(=O)OC)CCCC3)cc1,102.3,100.4,96.2,.
Cc1ccc(CCNC(=O)c2sc3nc4n(c(=O)c3c2C)CCCC4)cc1,94.7,92.4,83.5,-3.6
COc1ccc(NC(=O)Cn2c(=O)c3cccn3c3ccccc32)cc1Cl,105.1,113.4,96.8,1.4

# Arranged by count of non-hydrogen atoms (falling): part of the list above.
compound,GIV-Gai inh,Sa growth 42C,Sa growth 42C second temp,HCMV UL50-53 inh
CCc1ccc(OCC(=O)Nc2sc3c(c2C(=O)OC)CCCC3)cc1,102.3,100.4,96.2,.
O=C(CCNS(=O)(=O)c1cccs1)NC1CCCc2ccccc21 (stereo not given),.,96.5,92.9,-3.9
Cc1ccc(C)n1-c1nnc(N2CCCC(C(=O)O)C2)s1 (stereo not given),86.7,83.7,92.9,.

# Next section.
compound,GIV-Gai inh,Sa growth 42C,Sa growth 42C second temp,HCMV UL50-53 inh
CCOC(=O)c1c(NC(=O)c2ccc(Br)cc2)sc2c1CCCC2,107.3,84.9,83.7,.
COc1ccc(S(=O)(=O)c2nnn(-c3ccc(C)c(Cl)c3)c2C)cc1,105.4,92.2,94.7,-2.3
COC(=O)c1ccc(Cn2c(C)cc(C)[n+]2C)o1,105.7,97.4,91.2,-22.8
COC(=O)CN1C(=O)CSc2ccc(S(=O)(=O)Nc3cccc(Br)c3)cc21,103.0,123.8,84.5,.
O=C(CSc1nc2cc(S(=O)(=O)N3CCCCC3)ccc2o1)Nc1ccccc1F,.,84.6,91.6,6.2
O=[N+]([O-])c1ccc(O)c(-c2ccnc3cc(-c4ccccc4)nn23)c1,102.7,45.6,14.1,-18.7
CCOc1ccccc1N(CC)C(=O)c1cc2ccc3cccnc3c2[nH]1,101.1,42.6,46.2,.
N#C/C(=C\c1ccc[nH]1)S(=O)(=O)c1ccccc1,108.0,104.1,95.3,-29.2
Cc1ccc(C2NC(=S)NC3=C2N2CCC3CC2)cc1 (stereo not given),101.7,96.1,85.6,-6.6
COc1cc(CN(C(=O)Nc2ccccc2)c2ccccn2)cc(OC)c1OC,104.5,111.2,90.0,-17.4
COc1ccc(S(=O)(=O)NCCc2csc(-c3ccc(Cl)cc3)n2)cc1OC,103.6,.,.,-36.4
COc1ccc(-n2nc(C(=O)Nc3ccc(F)cc3)c3c4ccccc4n(C)c3c2=O)cc1,97.3,.,.,-6.6

# Rewritten with values under each structure: entries from further up
# Value order – GIV-Gai inh	Sa growth 42C	Sa growth 42C second temp	HCMV UL50-53 inh
> COc1cc(CN(C(=O)Nc2ccccc2)c2ccccn2)cc(OC)c1OC
→ 104.5	111.2	90.0	-17.4
> COc1ccc(-n2nc(C(=O)Nc3ccc(F)cc3)c3c4ccccc4n(C)c3c2=O)cc1
→ 97.3	.	.	-6.6
> O=C(CSc1nc2cc(S(=O)(=O)N3CCCCC3)ccc2o1)Nc1ccccc1F
→ .	84.6	91.6	6.2

# Other records.
compound,GIV-Gai inh,Sa growth 42C,Sa growth 42C second temp,HCMV UL50-53 inh
CC(=O)Nc1cccc(C(=O)OCCN2C(=O)c3ccccc3C2=O)c1,.,88.0,96.1,-38.2
CCc1nn2c(=O)c(S(=O)(=O)NCc3ccc4c(c3)OCO4)c(C)nc2s1,102.7,.,.,-27.1
COC(=S)Nc1ccccc1Cl,103.0,99.3,116.0,2.7
CC(C)Cn1c(=O)c2sccc2n2c(CCC(=O)N3CCN(C4CCCCC4)CC3)nnc12,98.3,.,.,-19.2
Cc1ccc(C)c(N2CCN(C(=O)CN3CC(c4ccccc4)CC3=O)CC2)c1 (stereo not given),94.5,95.4,86.9,.
Cn1c(=O)[nH]c(=O)c2c1nc(SCC(=O)c1ccc([N+](=O)[O-])cc1)n2CC(O)COc1ccc(Cl)cc1 (stereo not given),98.2,.,.,-8.9
COc1ccccc1CNC(=O)c1cncc(NS(=O)(=O)c2ccc(F)cc2)c1,100.7,.,.,-28.7
O=C1/C(=N\n2cnc3c(cnn3-c3ccccc3)c2=O)c2ccccc2N1CO,.,85.6,92.9,2.8
CCOC(=O)C1CCCN(C(=O)c2ccc3c(c2)NC(=O)c2ccccc2S3)C1 (stereo not given),107.4,115.7,87.6,.
CS(=O)(=O)N(CC(=O)N1CCN(C(c2ccccc2)c2ccccc2)CC1)c1cccc(Cl)c1,103.1,.,.,-13.8
O=C(CSCc1ccc(Cl)cc1)NCc1ccc2c(c1)OCO2,.,111.9,89.9,-23.4
CCOC(=O)c1cc(-c2ccc(OC)c(S(=O)(=O)Nc3ccc(Cl)cc3C)c2)on1,102.3,.,.,-14.1

# Next section:
compound,GIV-Gai inh,Sa growth 42C,Sa growth 42C second temp,HCMV UL50-53 inh
COc1ccc(CNC(=O)Cn2nc3c(cc2=O)CCCC3)cc1,101.8,108.3,85.1,.
O=C(NC12CC3CC(CC(C3)C1)C2)N1CCC(CN2CCCCC2)CC1,97.3,85.5,80.5,.
Cc1ccc(-c2cccc3c(C(=O)NCCN4CCOCC4)cc(C)nc23)cc1,110.1,.,.,-40.7
COc1ccc(C(CC(=O)O)Sc2ncn[nH]2)cc1 (stereo not given),102.7,87.3,102.7,-6.3
CSc1nnc2c(n1)OC(c1ccc([N+](=O)[O-])o1)Nc1ccccc1-2 (stereo not given),102.9,.,.,-64.9
Cc1ccc2c(c1)-c1nc3[nH]c(=O)[nH]c(=O)c3cc1C(O)O2 (stereo not given),.,106.5,87.6,-15.0
COc1ccc(Br)cc1CNC(=O)Cn1c(=O)c2cccn2c2ccc(F)cc21,98.1,122.4,84.8,-1.9
N#Cc1c(SCC(=O)Nc2ccccc2)nsc1SCC(=O)Nc1ccccc1,96.2,105.2,91.7,-5.6
Nc1nc(-c2ccccc2)cc(=O)[nH]1,94.9,94.9,90.9,-7.5
Cc1cc(F)ccc1S(=O)(=O)NCC(c1ccco1)S(=O)(=O)c1cccs1 (stereo not given),104.4,114.4,100.7,.
COc1ccc(CNC(=O)c2ccc3c(O)c(S(=O)(=O)c4ccccc4)c(=O)[nH]c3c2)cc1,94.2,95.2,79.2,.
Cc1ccc(NC(=O)COC(=O)COc2ccc(Cl)cc2)cc1C,.,116.4,90.6,-26.6

# More compounds
compound,GIV-Gai inh,Sa growth 42C,Sa growth 42C second temp,HCMV UL50-53 inh
COc1ccc(-c2cc(C3CCNCC3)[nH]n2)cc1,100.4,.,.,-1.5
Cc1ccc(C)c(Cn2c(SCC(=O)NCc3ccccc3)nc3ccccc32)c1,101.1,100.7,89.0,.
COC(=O)c1ccc(CSCC(=O)Nc2cc(OC)cc(OC)c2)o1,.,104.5,87.1,-16.0
Cn1c(=NC(=O)Cc2csc(-c3cccnc3)n2)sc2ccccc21,.,74.3,89.5,-26.6
CCSCCOC(=O)C1=C(C)NC(=O)NC1c1cc(Br)ccc1OC (stereo not given),99.5,.,.,-10.7
CCOc1ccccc1NC(=O)C(NC1CCS(=O)(=O)C1)c1ccccc1 (stereo not given),.,100.6,82.1,-21.0
Cc1n[nH]c(=S)n(/N=C/C2=CCC3CC2C3(C)C)c1=O (stereo not given),.,101.4,89.5,-5.9
COCCCNc1ncnc2onc(-c3ccc(Cl)cc3)c12,107.1&100.8,95.9,95.0,-2.0&-31.6
COc1ccc2[nH]c3c(=O)n(CC(=O)NCCc4ccc(OC)c(OC)c4)c(=S)[nH]c3c2c1,98.2,111.5,76.0,.
Cc1cc(C)nc(SCC(=O)OCCN2C(=O)c3ccccc3C2=O)n1,.,88.9,94.3,-1.0
O=C(NCCCN1CCCC1)c1cc2c(s1)-c1ccccc1OC2,100.4,101.9,94.9,.
Cc1cccc(NC(=O)Cc2noc3ccccc23)n1,106.2,.,.,-17.9

# Further entries.
compound,GIV-Gai inh,Sa growth 42C,Sa growth 42C second temp,HCMV UL50-53 inh
O=C(COc1ccc(Cl)cc1)Nc1nc(-c2ccccc2)ns1,106.6,.,.,16.3
O=C(Nc1nccs1)c1cccc(Cl)c1,103.7,96.3,64.3,-7.6
Cn1nc(-c2ccccc2F)c2cc(C(=O)N3CCN(c4ccccc4F)CC3)sc21,106.0,98.8,79.0,-10.9
O=C(COc1ccc(-c2nnco2)cc1)NC(=O)NCc1ccco1,.,100.3,76.0,-31.1
CCc1ccc(C(=O)c2cn(CC(=O)Nc3cc(C)ccc3C)c3nc(C)ccc3c2=O)cc1,106.1,98.9,100.4,.
NNc1ccc2c(Cl)cc(Cl)c(O)c2n1,103.5,4.2*,3.6*,.
CCCCC(=O)Nc1ccc(Nc2cc(N(C)C)nc(C)n2)cc1,105.4,.,.,-13.8
O=C1c2ccccc2C(=O)N1CCSc1n[nH]c(=O)n1Cc1ccccc1,.,102.5,88.6,-33.0
Nc1nnc(CCN2C(=O)S/C(=C/c3ccccc3)C2=O)s1,.,81.9,78.5,-55.1
Cc1ccc(CNC(=O)CN2CCN(Cc3cccc(C)c3)C2=O)cc1,99.6,99.6,69.4,-25.2
Cc1cc2c(cc1NS(=O)(=O)c1c(C)c(C)cc(C)c1C)n(C)c(=O)n2C,102.0,.,.,-30.7

# From PubChem BioAssay
